GIV Gai3 FP = blocks GIV peptide binding to rat Galpha-i3. Galpha-i3/FITC-GIV peptide fluorescence polarization, 90 min; hits give low values; scaled: aluminum fluoride 0%, vehicle 100%. 210,000 compounds, 0.42% hits. P08753. AID 1224905. percent of control (FP), % (no concentration beside the values);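 active means replicate mean at 85% of control or lower, very high polarization wells dropped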;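 further: wells of about 15 µL received 100 nL stock; the first replicate is given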
Target sequence (P08753 whole entry, looked up): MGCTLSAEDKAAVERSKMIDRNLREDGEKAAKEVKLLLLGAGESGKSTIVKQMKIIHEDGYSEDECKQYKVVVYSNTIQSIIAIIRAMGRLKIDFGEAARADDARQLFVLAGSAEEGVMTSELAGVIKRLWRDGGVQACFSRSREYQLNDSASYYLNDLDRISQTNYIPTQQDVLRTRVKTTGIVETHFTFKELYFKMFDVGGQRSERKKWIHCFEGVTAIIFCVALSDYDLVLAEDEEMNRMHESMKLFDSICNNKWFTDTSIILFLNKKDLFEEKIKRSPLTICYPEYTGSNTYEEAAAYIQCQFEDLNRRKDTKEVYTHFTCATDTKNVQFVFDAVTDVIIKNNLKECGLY
HCMV UL50-53 inh = cytomegalovirus nuclear egress complex inhibition; HTRF UL50-UL53 interaction, normalized percent inhibition; inhibition, % (test concentration not listed); 190,000 compounds, 0.15% hits;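 active means both replicates at 50% or more, plus weaker picks with an unusually low signal ratio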;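 further: stock transfer was 100 nL into about 20 µL; 0% = negative control wells and 100% = wells with untagged competitor protein; inactives centre near -12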
Sa growth 42C = blocks Staphylococcus aureus growth | S. aureus RN4220 growth, OD600, 20 h, 42 °C; hits give low values | 170,000 compounds, 0.53% hits | relative growth, % (concentration not given with the values);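 active means growth at 42 °C up to 50% and 20 or more points under that at 30 °C, or under 10% at both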;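 further: 300 nL library stock went into each well; scaled to the means of positive and negative controls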
Sa growth 42C second temp = recorded beside Sa growth 42C, whose call it bears; relative growth, %; measured here: growth at 30 °C;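 optical density after 20 h as mean of two plates; 100% = untreated growth and lower means inhibition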
Active calls of the source: *; nt = no result given; & = joins results of further samples.

canonical_smiles | GIV Gai3 FP | HCMV UL50-53 inh | Sa growth 42C | Sa growth 42C second temp
Cc1noc(C)c1/C=C1\N=C(C23CC4CC(CC(C4)C2)C3)OC1=O | nt | -25 | 120 | 86
Cc1ccc(-c2noc(CN(C(=O)c3ccc(C)cc3Cl)C(C)C)n2)cc1 | 109 | -20 | 109 | 91
Cc1ccc(NC(=O)Cn2c(=O)n(Cc3ccc4c(c3)OCO4)c(=O)c3ccc(C(=O)NC4CCCCC4)cc32)c(C)c1 | 101 | -23 | 93 | 90
COc1cc(Cl)c(C)cc1NC(=O)c1cnn(-c2ccc(C)cc2)c1-n1cccc1 | 103 | nt | 88 | 89
COc1cc2ccccc2cc1C(=O)Nc1ccc2oc(-c3ccc(Cl)cc3)nc2c1 | 108 | -21 | 101 | 87
COc1ccc(Nc2ncc(C(=O)N3CCN(c4cccc(Cl)c4)CC3)c3ccccc23)cc1 | 99 | -29 | 101 | 93
CCc1cccc(NC(=O)CSc2ncccn2)c1 | nt | -32 | 95 | 92
CNCc1cc(C)[nH]n1 | 104 | -16 | 87 | 88

Reformatted with each value named: entries from further up
Cc1ccc(-c2noc(CN(C(=O)c3ccc(C)cc3Cl)C(C)C)n2)cc1
  GIV Gai3 FP: 109	HCMV UL50-53 inh: -20	Sa growth 42C: 109	Sa growth 42C second temp: 91
Cc1ccc(NC(=O)Cn2c(=O)n(Cc3ccc4c(c3)OCO4)c(=O)c3ccc(C(=O)NC4CCCCC4)cc32)c(C)c1
  GIV Gai3 FP: 101	HCMV UL50-53 inh: -23	Sa growth 42C: 93	Sa growth 42C second temp: 90
COc1cc(Cl)c(C)cc1NC(=O)c1cnn(-c2ccc(C)cc2)c1-n1cccc1
  GIV Gai3 FP: 103	HCMV UL50-53 inh: nt	Sa growth 42C: 88	Sa growth 42C second temp: 89
COc1cc2ccccc2cc1C(=O)Nc1ccc2oc(-c3ccc(Cl)cc3)nc2c1
  GIV Gai3 FP: 108	HCMV UL50-53 inh: -21	Sa growth 42C: 101	Sa growth 42C second temp: 87

(more compounds)
canonical_smiles | GIV Gai3 FP | HCMV UL50-53 inh | Sa growth 42C | Sa growth 42C second temp
Cc1ccccc1CSc1nc2c([nH]c3ccccc32)c(=O)n1C | 103 | nt | 102 | 92
Cc1c(C(=O)N2CCN(C)CC2)oc2c1C1(CCC2)SCCS1 | 105 | -20 | 101 | 99
Cc1ccc(C2=Nc3ccccc3N(CC(=O)Nc3ccccc3F)C(=O)C2)cc1C | 99 | nt | 119 | 95
CCOc1ccc(-c2cc3c(=O)n(Cc4nc(-c5ccccc5OCC)oc4C)ccn3n2)cc1Cl | 97 | 18 | 90 | 99
COc1ccc(OCC(=O)N2CCc3ccccc3C2)cc1 | 101 | -4 | 101 | 52
COc1ccc(CN2CC(C(=O)NCc3ccc4c(c3)OCO4)CC2=O)cc1 (stereo unspecified) | 100 | 13 | 107 | 104
O=C1c2cccc3cccc(c23)N1S(=O)(=O)c1cccs1 | nt | 6 | 112 | 100
Cn1c(=O)c(=O)n(C)c2cc(S(=O)(=O)NCCOc3ccccc3)ccc21 | 98 | -10 | 100 | 94
COc1ccc2ncc(S(=O)(=O)c3ccc(Cl)cc3)c(N3CCCCC3C)c2c1 (stereo unspecified) | 102 | nt | 83 | 84
Cc1ccc(C(=O)OCC(N)=O)s1 | nt | -2 | 111 | 92
CCOC(=O)c1noc2ncn(CC(=O)Nc3cccc(C)n3)c(=O)c12 | 112 | -30 | nt | nt
O=C(Cn1c2ccccc2c(=O)c2cc([N+](=O)[O-])ccc21)Nc1ccc(F)c(Cl)c1 | 113 | -21 | nt | nt
COCCCN1C(=O)c2[nH]nc(-c3cc(C)ccc3O)c2C1c1ccccc1F (stereo unspecified) | 106 | -16 | nt | nt
Cc1ccc2c(c1)c(=O)c1ccccc1n2CC(=O)Nc1cc(Oc2ccc(F)cc2F)cc([N+](=O)[O-])c1 | 103 | -26 | nt | nt
CC(=O)Nc1cccc(N2CC(O)=C(c3nc4ccccc4c(=O)[nH]3)C2=N)c1 | 167 | 54 | nt | nt
Cc1ccc(CN2C(=O)C3CCCCC3C2=O)cc1S(=O)(=O)Nc1cccnc1 (stereo unspecified) | 105 | 0 | nt | nt
O=C(NCCc1ccccc1)c1cc2ccccc2o1 | 107 | -19 | 94 | 86
CCOC(=O)c1c(C)[nH]c(C(=O)N2CCCC(C(=O)NC3CC3)C2)c1C (stereo unspecified) | 95 | -21 | nt | nt
O=C(c1ccc2c(Cl)c3c(nc2c1)CCCC3)N1CCN(c2ccc(Cl)cc2)CC1 | 99 | -23 | 99 | 88
CCCCN=C1SCC(c2ccc(Br)s2)=NN1C | nt | -19 | 73 | 69
CC1CCC2(CC1)NC(=O)N(Nc1ncnc3sccc13)C2=O (stereo unspecified) | nt | -31 | 75 | 88
N#CCSc1nc(N2CCOCC2)nc(N2CCOCC2)n1 | 101 | 2 | 107 | 97
Cc1ccc(S(=O)(=O)c2nnn3c2nc(NCC2CCCO2)c2ccccc23)cc1 (stereo unspecified) | 105 | nt | 113 | 88
Cc1ccc(CNC(=O)C(=O)NCC(c2cccs2)S(=O)(=O)c2ccccc2)cc1 (stereo unspecified) | 111 | nt | 105 | 91
Cc1cccc(Cn2ccn(Cc3ccc(Cl)cc3)c(=O)c2=O)c1 | 113 | 23 | 124 | 100
O=C(Nc1ccc(N2C(=O)C3CC=CCC3C2=O)cc1)c1ccc(N2C(=O)C3CC=CCC3C2=O)cc1 (stereo unspecified) | 99 | -15 | nt | nt
CCOC(=O)C1CCN(C(c2cccc(F)c2)c2c(O)cc(C)n(CCOC)c2=O)CC1 (stereo unspecified) | 101 | nt | 96 | 100
CSc1ccc(CCNC(=O)c2cc(C)nc3c2c(C)nn3-c2cccc(F)c2)cc1 | 103 | nt | 80 | 83
O=C(CSC1=NC(=O)C(Cc2ccccc2)C(=O)N1)Nc1ccccc1 (stereo unspecified) | 102 | -6 | nt | nt
Cc1ccc2c(CC(=O)Nc3c(C(=O)c4ccc(F)cc4)oc4ccccc34)coc2c1 | 102 | -7 | 100 | 93
Nc1nc(Cc2cc3ccccc3[nH]2)nc(NC2CCCCC2)n1 | 101 | 8 | 90 | 96
Cc1cccc(N(C)C(=O)C(C)Sc2nc3ncccc3o2)c1 (stereo unspecified) | 102 | -37 | 95 | 85
CSCCC(NS(=O)(=O)c1ccc2c(c1)oc(=O)n2C)C(=O)NCc1ccc(F)cc1 (stereo unspecified) | 100 | -28 | 100 | 88
CCn1c(Cn2nnc3ccccc3c2=O)nc2cc(S(=O)(=O)N(C)C)ccc21 | nt | -23 | 94 | 95
COc1ccccc1/C=C/C=N/n1c(-c2ccncc2)n[nH]c1=S | 108 | 3 | 99 | 99
Nc1ccc(CCC(=O)O)cc1 | 102 | -12&-24 | 114 | 84
COc1ccc(O)c(C(=O)c2cnc3c(c2)c(=O)[nH]c(=O)n3C)c1 | nt | -72 | 81 | 64
CC1CCN(CC(=O)Nc2ccccc2Br)CC1 | 106 | -21 | 117 | 95
CC1CCC(NC(=O)C2CCCN(C(=O)c3cc(-c4cccnc4)n[nH]3)C2)CC1 (stereo unspecified) | 99 | -9 | nt | nt
CCSc1nnc2c(n1)OC(c1cccc(Cl)c1)Nc1ccccc1-2 (stereo unspecified) | 104 | -14 | nt | nt

Arranged by heavy-atom count (smallest number first): some entries from above
canonical_smiles | GIV Gai3 FP | HCMV UL50-53 inh | Sa growth 42C | Sa growth 42C second temp
CC1CCN(CC(=O)Nc2ccccc2Br)CC1 | 106 | -21 | 117 | 95
CCSc1nnc2c(n1)OC(c1cccc(Cl)c1)Nc1ccccc1-2 (stereo unspecified) | 104 | -14 | nt | nt
CSCCC(NS(=O)(=O)c1ccc2c(c1)oc(=O)n2C)C(=O)NCc1ccc(F)cc1 (stereo unspecified) | 100 | -28 | 100 | 88

Continued:
canonical_smiles | GIV Gai3 FP | HCMV UL50-53 inh | Sa growth 42C | Sa growth 42C second temp
O=C(Nc1ccccc1)Nc1ccc(N2CCOCC2)cc1 | nt | -14 | 81 | 87
O=C(O)CC1(CC(=O)Nc2ccccc2-n2cccn2)CCCCC1 | 103 | -5 | 108 | 102
CCOC(=O)Cn1c(=O)n(C2CCCCC2)c2nc(-c3ccc(Cl)cc3)nc(C(N)=O)c21 | 106 | nt | 98 | 99
C/C(=N\N1C(C)CCCC1C)c1ccco1 (stereo unspecified) | nt | -13 | 110 | 96
FC(F)(F)c1ccc(-c2nnc(-c3cccs3)o2)cc1 | 103 | 2 | 108 | 102
CCn1cc(C(=O)NCCc2ccccc2)c(=O)c2cc(S(=O)(=O)N(C)C)ccc21 | 101 | nt | 115 | 80
N=C1/C(=C/c2ccco2)C(=O)N=C2SC(C3CCCCC3)=NN12 | 105 | nt | 98 | 76
CCn1nc(NC(=O)c2ccco2)c2cc3ccc(C)cc3nc21 | 105 | -73 | 87 | 68
CCc1c(C)sc(NC(=O)c2ccco2)c1C(=O)NCc1ccccc1 | 121 | 2 | 129 | 153
O=C(O)CCCN1C(=O)CSC1=S | nt | 1 | 64 | 78
Cc1csc2ncc(C(=O)NCC(C)C)c(=O)n12 | 104 | 8 | nt | nt
O=C(CSc1nccn1Cc1ccc(F)cc1)NCc1ccccc1 | 99 | nt | 98 | 83
c1ccc(-c2csc(-c3ccc(-n4cncn4)nc3)n2)cc1 | 97 | -4 | 110 | 101
Cc1ccc(-c2nnc(N3CCN(c4ccccn4)CC3)c3ccccc23)cc1 | 103 | 10 | 97 | 88
CCSc1nc2sc3c(c2c(=O)n1-c1ccc(C)c(Cl)c1)CCN(C(C)=O)C3 | 99 | -2 | 100 | 77
O=C(O)[C@H]1/C(=C/CO)O[C@@H]2CC(=O)N21 | nt | -48 | 15* | 38*
COc1ccc(-c2nc3ccccc3s2)cc1NC(=O)c1ccc(F)cc1 | 107 | -23 | 89 | 91
CCn1c(C(=O)N2CCC(C(=O)N3CCC(Cc4ccccc4)CC3)CC2)cc2sccc21 | 105 | -19 | 75 | 52
C=CCN1C(=O)NC(=O)/C(=C/c2ccc(OCc3ccccc3F)c(OCC)c2)C1=O | 104 | -13 | nt | nt
Cc1cc(=O)[nH]c(-n2nc(C)cc2NC(=O)c2ccc(C(C)(C)C)cc2)n1 | 100 | -31 | nt | nt
CN(Cc1nc2ccccc2n1C)C(=O)c1ccco1 | 100 | nt | 105 | 94
O=C(CSc1nc2ccccc2[nH]c1=O)NCc1ccco1 | 100 | -48 | 102 | 77
Cc1ccc(C2=Nc3ccccc3N=C(c3ccc(F)cc3)C2)c(O)c1 | 104 | -30 | 102 | 94
Cc1nn(CCC#N)c2nc(-c3cccnc3)cc(C(F)(F)F)c12 | nt | -16 | 93 | 86
Ic1cccc(-c2nnc(-c3ccccc3)o2)c1 | nt | -8 | 87 | 79
CCOC(=O)c1ccc(NC(=O)c2c(-c3c(F)cccc3Cl)noc2C)cc1 | 103 | -2 | 97 | 93
Cc1ccc(SCC(=O)Nc2ccc3c(c2)n(C)c(=O)n3C)cc1 | 99 | 10 | 100 | 90
COc1ccc(NS(=O)(=O)c2ccc(-c3cc(C(F)(F)F)no3)s2)cc1 | 99 | -10 | 79 | 88
CCC(Sc1nc2ncccc2o1)C(=O)N1CCCc2ccccc21 (stereo unspecified) | 103 | -25 | nt | nt
CCOC(=O)CC1=Nn2c(nnc2-c2ccc(OC)cc2)SC1 | nt | -12 | 87 | 90
Cc1ccc(-c2ccc(N3CCCC(C(=O)N4CCCC4)C3)nn2)cc1 (stereo unspecified) | 99 | -26 | nt | nt
CCc1ccc(NC(=O)C2CCN(S(=O)(=O)c3c(C)noc3/C=C/c3ccco3)CC2)cc1 | 106 | -22 | 102 | 89
COc1cc(C2NC(=O)NC(C)=C2C(=O)NCc2ccccc2)ccc1OCC(N)=O (stereo unspecified) | nt | -14 | 111 | 84
CC1CC(C)CN(S(=O)(=O)c2ccc(C(=O)Nc3nc(-c4cc5ccccc5oc4=O)cs3)cc2)C1 (stereo unspecified) | 105 | -5 | nt | nt
Cc1ccc(-c2nnc(SC(=O)OCc3ccccc3)o2)cc1 | 103 | nt | 77 | 88
CCCS(=O)c1ccccc1 (stereo unspecified) | 101 | -17 | 110 | 80
Cc1nc(C)c(C(=O)NC2CCSc3ccccc32)s1 (stereo unspecified) | nt | -14 | 88 | 95
COc1cccc(CNC(=O)CCSCc2ccccc2F)c1 | 99 | -13 | 106 | 87
CC1CC(C)CN(C(=O)c2ccc3c(c2)OCO3)C1 (stereo unspecified) | nt | -13 | 102 | 84
C(=C\c1ccccc1)/CSc1nnc2n1CCN2c1ccccc1 | 98 | -33 | nt | nt
CCOC(=O)c1ccc(CSc2nncn2N)o1 | 98 | -34 | 82 | 88
C=C(C)COc1ccc2c3c(c(=O)oc2c1OCC(=C)C)CCC3 | 101 | -19 | 86 | 82
CC(Sc1ncc(S(=O)(=O)c2ccc(C(C)C)cc2)c(N)n1)C(=O)Nc1ccccc1 (stereo unspecified) | 101 | nt | 86 | 90
C=CCOc1ccc(/C=C2\SC(=Nc3ccccc3)NC2=O)cc1OC | 102 | -2 | nt | nt
C1CCC(N2CCC(N3CCCCC3)CC2)CC1 | 105 | -26 | 83 | 89
CC(=O)c1c(C)n(-c2ccc(C)cc2)c2ccc(OC(=O)COc3ccccc3)cc12 | 101 | -55 | 111 | 73

Screening results: PubChem BioAssay, ICCB-Longwood Screening Facility, Harvard Medical School
